Source: PubChem BioAssay (Johns Hopkins Ion Channel Center)
KCNQ2 inh = KCNQ2 channel blockers in CHO-K1 cells – cell-based, FluxOR thallium flux, B-score, primary screen (AID 2156); hit rate 1.1% among 310,000; O88943; B-score at 10 µM; 20 min; hits give low values; only compounds with negative scores are shown here; some inactives read as strong as hits;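 active = fluorescence ratio B-score at most minus 3 library SDs, with starting brightness B-score within 2 library SDs, cut at about -5.5 in these data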
Target sequence (O88943 whole entry, looked up): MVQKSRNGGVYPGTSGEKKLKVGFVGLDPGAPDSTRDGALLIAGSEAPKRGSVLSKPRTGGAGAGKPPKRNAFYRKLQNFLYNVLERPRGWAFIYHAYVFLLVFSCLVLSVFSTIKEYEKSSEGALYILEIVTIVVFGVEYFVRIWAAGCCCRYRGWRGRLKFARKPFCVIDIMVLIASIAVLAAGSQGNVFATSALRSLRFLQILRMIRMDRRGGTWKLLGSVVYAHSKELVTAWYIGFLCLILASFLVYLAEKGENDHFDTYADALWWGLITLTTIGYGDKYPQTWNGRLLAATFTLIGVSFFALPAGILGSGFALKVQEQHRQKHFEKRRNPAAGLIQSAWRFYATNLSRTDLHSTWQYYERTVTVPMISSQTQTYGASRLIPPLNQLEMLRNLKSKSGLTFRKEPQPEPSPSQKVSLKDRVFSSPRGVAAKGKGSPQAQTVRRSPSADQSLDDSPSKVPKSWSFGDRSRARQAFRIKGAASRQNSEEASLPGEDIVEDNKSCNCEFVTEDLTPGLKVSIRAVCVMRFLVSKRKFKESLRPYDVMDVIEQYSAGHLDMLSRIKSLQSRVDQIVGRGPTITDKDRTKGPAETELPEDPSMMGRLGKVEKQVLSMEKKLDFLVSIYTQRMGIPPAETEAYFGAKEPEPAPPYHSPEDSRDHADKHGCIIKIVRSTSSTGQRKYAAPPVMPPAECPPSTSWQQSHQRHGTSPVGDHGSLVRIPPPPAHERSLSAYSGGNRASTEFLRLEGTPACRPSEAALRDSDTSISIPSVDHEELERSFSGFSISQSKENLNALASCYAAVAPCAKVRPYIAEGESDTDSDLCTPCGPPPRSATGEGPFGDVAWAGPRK
KCNQ2 inh baseline = second read-out of KCNQ2 inh, no call of its own (marks repeat the call); B-score; measured here: initial fluorescence intensity artifact check;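 brightness before thallium and not channel activity; 0 = typical well and far values either way flag optical interference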
Starred values were filed as active, the others as inactive; i = inactive. This is a subset; count on the stated rates, not on these rows.

Preview (2 entries):
KCNQ2 inh | KCNQ2 inh baseline | Structure
i | -0.54 | O=C(NCc1cccnc1)Nc1ccc(Cl)cc1Cl
i | 0.35 | O=C(CSc1ncc(-c2ccc(F)cc2)n1Cc1ccco1)Nc1ccc2c(c1)OCO2

The list itself (from the top)
KCNQ2 inh | KCNQ2 inh baseline | Structure
i | -0.54 | O=C(NCc1cccnc1)Nc1ccc(Cl)cc1Cl
i | 0.35 | O=C(CSc1ncc(-c2ccc(F)cc2)n1Cc1ccco1)Nc1ccc2c(c1)OCO2
i | -1.1 | Cc1ccc(S(=O)(=O)N2CCC(C(=O)NNC(=O)c3ccccc3O)CC2)cc1C
i | -0.07 | CCOc1ccc2nc(N3CCCC(C(=O)NCCCN4C(C)CCCC4C)C3)sc2c1 (stereo unspecified)
i | -1.5 | CCOCCCNC(=O)C1CCCN(S(=O)(=O)c2cccc3nsnc23)C1 (stereo unspecified)
i | 1 | CN(CC1CCCN(CCc2ccc(Cl)cc2)C1)C(=O)CC(F)(F)F (stereo unspecified)
i | 1.7 | Cc1ccc(-n2c(C)cc(/C=N\NC(=O)CC(=O)NC(C)C)c2C)cc1
i | 1.2 | CN1C(=O)C2(OCC(CO)([N+](=O)[O-])CO2)c2ccccc21 (stereo unspecified)
i | -0.01 | CC(C)(C)C(=O)N1CCN(c2ccc(Cl)cc2[N+](=O)[O-])CC1
i | 0.03 | Cc1occc1C(=O)N/N=C/C=C/c1ccccc1
i | -0.01 | Cc1ccc(CSc2nc3c(c(N(C)C)n2)CCCC3)cc1
i | 0.01 | CCn1c(SCC(=O)Nc2ccccc2C(=O)OC)nnc1-c1ccc(N)cc1
i | -0.5 | O=C(c1cnn2c(C(F)F)cc(-c3ccccc3)nc12)N1CCN(Cc2ccc3c(c2)OCO3)CC1
i | -1.6 | CCN1CCN(C(c2cccnc2)c2cc(Cl)c3cccnc3c2O)CC1 (stereo unspecified)
i | -1.1 | Cc1csc(-c2cnn(-c3ccccc3)c2NC(=O)c2ccccc2)n1
i | 0.66 | Cc1ccc(NC(=S)N2CCN(C(=O)c3ccccc3)CC2)c(C)c1
i | -2.2 | N#Cc1ccc(N2CCN(C(=O)c3cccs3)CC2)c(F)c1
i | 2.1 | Nc1cc(S(=O)(=O)N2CCCCC2)ccc1Oc1ccc(Cl)cc1
i | -0.02 | O=[N+]([O-])c1cccc(S(=O)(=O)Nc2ccc(Cc3ccncc3)cc2)c1
i | 1.3 | O=C(NC(=S)Nc1ccc(Cl)cc1Cl)C1CC1

Complete entries as entered above.
Nc1cc(S(=O)(=O)N2CCCCC2)ccc1Oc1ccc(Cl)cc1 is listed with KCNQ2 inh = i; KCNQ2 inh baseline = 2.1
N#Cc1ccc(N2CCN(C(=O)c3cccs3)CC2)c(F)c1 is listed with KCNQ2 inh = i; KCNQ2 inh baseline = -2.2
O=C(NC(=S)Nc1ccc(Cl)cc1Cl)C1CC1 is listed with KCNQ2 inh = i; KCNQ2 inh baseline = 1.3

Carrying on.
KCNQ2 inh | KCNQ2 inh baseline | Structure
i | -0.18 | CC(C)c1ccc(OCC(=O)NC(Cc2c[nH]c3ccccc23)C(=O)O)cc1 (stereo unspecified)
i | 0.05 | O=C(NCc1ccccc1)c1ccc2c(=O)n(CC3CCCO3)c(=S)[nH]c2c1 (stereo unspecified)
i | -2.4 | COC(=O)C(CCSC)NC(=O)/C=C/c1ccc(OC)cc1 (stereo unspecified)
i | -2.6 | COc1ccc(C(=O)NC(=S)Nc2ccccc2N2CCCCC2)cc1[N+](=O)[O-]
i | -0.12 | Nc1nc(SCC(=O)N2N=C(c3ccc(Cl)cc3)CC2c2ccco2)n[nH]1 (stereo unspecified)
i | 0.04 | Cc1ccc(S(=O)(=O)Oc2ccc(/C=N/N=C3/NC(=O)C(CC(=O)O)S3)cc2)cc1[N+](=O)[O-] (stereo unspecified)
i | 0.01 | Cc1ccc(S(=O)(=O)NCCSCc2ccco2)cc1
i | 0.08 | Cc1ccc(C(C(=O)NC(C)(C)C)N(CC2CCCO2)C(=O)Cn2nnc(-c3ccc(C)o3)n2)cc1 (stereo unspecified)
i | 1.3 | CC(=O)NC(NC(=S)Nc1ccc(N=Nc2ccccc2)cc1)C(Cl)(Cl)Cl (stereo unspecified)
i | -0.46 | NS(=O)(=O)c1cccc(NC(=O)CSc2ccccn2)c1
i | 2 | Cc1ccc(NC(=O)CCNC(=O)Cn2cnc3ccccc3c2=O)cc1F
i | 2.6 | O=C(COc1ccc(C(=O)c2ccccc2)cc1)NCC1CCCCC1
i | -1 | COc1ccc(CNC(=O)c2cc3cc(OC)ccc3oc2=O)cc1
i | -0.25 | O=C(CSc1nc2ccccc2c(=O)n1CC1CCCO1)NCC1CCCO1 (stereo unspecified)
i | 3.1 | Cn1c(=O)[nH]c(=O)c2c1nc(N1CCCCC1)n2CCSc1nc2ccccc2o1
i | -1.4 | COc1ccc(S(=O)(=O)Nc2ccc(S(=O)(=O)N3CCCCC3)cc2)cc1C
i | 0.72 | CCOC(=O)c1c(C)[nH]c(C(=O)OCC(=O)N2CCN(S(=O)(=O)c3ccccc3)CC2)c1C
i | -1.3 | COc1ccc(C2/C(=C(/O)c3ccccc3)C(=O)C(=O)N2c2ccccn2)cc1 (stereo unspecified)
i | 2.1 | Cc1ccc(N2CC(C(=O)Nc3ccc(S(=O)(=O)Nc4nccc(C)n4)cc3)CC2=O)cc1 (stereo unspecified)
i | 1.5 | Cc1nnc(SCC(=O)N/N=C/c2ccc(-c3ccc(C)c(Cl)c3)o2)s1

More structures follow.
KCNQ2 inh | KCNQ2 inh baseline | Structure
i | 0.16 | C/C(=N\NC(=O)C(C)Nc1cccc(Cl)c1)c1ccc([N+](=O)[O-])cc1 (stereo unspecified)
i | -0.8 | O=C(CSc1nnc(Cc2ccccc2)o1)N1CCCC1
i | -0.15 | Cc1nn(CC(=O)Nc2nnc(C(C)C)s2)c(=O)c2ccccc12
i | 1.7 | CC(=O)Nc1ccc(NC(=O)C(C)OC(=O)c2oc3ccccc3c2C)cc1 (stereo unspecified)
i | 0.46 | S=c1[nH]ncn2c1cc1oc3ccccc3c12
i | 1.2 | O=C(COc1ccc(Br)cc1)OCCN1CCCCC1
i | -0.75 | O=C(Nn1c(Cc2ccccc2)nc2ccccc2c1=O)c1c(O)c2cccc3c2n(c1=O)CCC3
i | -2.6 | NC(=O)CN(N=Nc1cccc([N+](=O)[O-])c1)c1cccc([N+](=O)[O-])c1
i | -1 | CSc1ccc(-c2nnn(Cc3ccc(C)cc3)n2)cc1
i | 2.8 | CC1CN(Cc2ccc(Cl)cc2Cl)CC(C)O1 (stereo unspecified)
i | -1.4 | O=C(NCCC1CCCCN1S(=O)(=O)c1ccccc1)C(=O)NCc1cccnc1 (stereo unspecified)
i | 1.7 | Cc1ccc(NC(=O)c2cc(C)on2)cc1
i | 0.3 | O=C(NN1CCOCC1)c1cnn2c(C(F)F)cc(-c3ccccc3)nc12
i | 0.42 | CCN1CCN(c2ccc(NC(=O)c3ccc(F)cc3)cc2Cl)CC1
i | 0.67 | CCOC(=O)c1c(CNc2ccncc2)n(C)c2cc(Br)c(O)cc12
i | 0.7 | CC(Sc1nc(-c2ccc(F)cc2)cs1)C(=O)Nc1ccc(Cl)cn1 (stereo unspecified)
i | -0.86 | Clc1cccc(OCCN2CCN(CCOc3cccc(Cl)c3)CC2)c1
i | 1.4 | Cc1noc(C)c1COC(=O)CCC(=O)c1ccc(F)cc1
i | 1 | O=c1c(S(=O)(=O)c2ccc(Cl)cc2)cn(Cc2ccccc2)c2ccc(F)cc12
i | -0.92 | CCNC(=O)CCSc1nc(C)cc(C)n1

As entered above.
Cc1ccc(S(=O)(=O)N2CCC(C(=O)NNC(=O)c3ccccc3O)CC2)cc1C | KCNQ2 inh baseline: -1.1
Nc1nc(SCC(=O)N2N=C(c3ccc(Cl)cc3)CC2c2ccco2)n[nH]1 (stereo unspecified) | KCNQ2 inh baseline: -0.12
Cc1ccc(S(=O)(=O)Oc2ccc(/C=N/N=C3/NC(=O)C(CC(=O)O)S3)cc2)cc1[N+](=O)[O-] (stereo unspecified) | KCNQ2 inh baseline: 0.04
CCOc1ccc2nc(N3CCCC(C(=O)NCCCN4C(C)CCCC4C)C3)sc2c1 (stereo unspecified) | KCNQ2 inh baseline: -0.07
CC(C)(C)C(=O)N1CCN(c2ccc(Cl)cc2[N+](=O)[O-])CC1 | KCNQ2 inh baseline: -0.01
Clc1cccc(OCCN2CCN(CCOc3cccc(Cl)c3)CC2)c1 | KCNQ2 inh baseline: -0.86

The list goes on:
KCNQ2 inh | KCNQ2 inh baseline | Structure
i | 0.19 | CC(C)CN(CCC(=O)O)CC(C)C
i | -0.56 | COc1cc(/C=N/NC(=O)c2ccncc2)ccc1OC(=O)c1cccc(Br)c1
i | 0.01 | Cc1c(Cl)cccc1NC(=O)CC(C(=O)O)C1CCCO1 (stereo unspecified)
i | 5.2 | O=Nc1c(O)[nH]c2ccc(F)cc12
i | 0.04 | O=C(NC1CCCCC1)c1ccc(S(=O)(=O)N2CCOCC2)cc1
i | 1.7 | O=C(NCc1ccccn1)c1c(O)c2c([nH]c1=O)CCCC2
i | 3.4 | Cc1cccc(NC(=O)c2ccc3ccccc3n2)c1C
i | -0.09 | CC(=O)C1=C(C)NC(SCc2cccc3ccccc23)=C(C#N)C1c1ccco1 (stereo unspecified)
i | 0.03 | COc1ccc(C2Nc3ccccc3C(=O)N2O)cc1CN1CCOCC1 (stereo unspecified)
i | 1.8 | COc1ccc(-c2csc3nc(C)nc(N4CCN(C(C)=O)CC4)c23)cc1OC
i | 0.84 | CC(C)CNC(=O)COCc1cc(-c2ccc3c(c2)OCO3)on1
i | -1.6 | COc1ccc(OC)c(S(=O)(=O)N2c3cc(F)ccc3CCC2C)c1 (stereo unspecified)
i | -2.2 | COC(=O)c1cc(S(=O)(=O)N2CCN(c3cccc(C)c3)C(C)C2)c[nH]1 (stereo unspecified)
i | 0.5 | Cc1ccc(C(C)C)c(Oc2nnnn2-c2ccccc2)c1
i | 2.9 | CS(=O)(=O)c1ccc(Cl)c(NC(=O)c2ccc3ccccc3c2)c1
i | 0.49 | O=C(O)c1cccc(N=C2NC(=O)C(CO)(CO)S2)c1
i | 0.39 | Cc1ccc(C(=O)N/N=C\c2cc3c(cc2Br)OCO3)cn1
i | 1.6 | CC(=O)N1CCN(C2=Nc3cccc4cccc2c34)CC1
i | 0.05 | C=CCN1CCN(C(=O)c2ccc(-c3ccccc3)cc2)CC1
i | -0.01 | COc1cc(C(=O)NCCSc2ccccc2)cc(OC)c1OC

More structures follow:
KCNQ2 inh | KCNQ2 inh baseline | Structure
i | 0.98 | Cc1cccc(-c2n[nH]c(=S)n2/N=C/c2ccc(C)o2)c1
i | 0.79 | CCOC(=O)c1cc(-c2ccccc2)n(Cc2cc(CC)no2)n1
i | 1.6 | CCC1CN(C(=O)N2CCC(C(=O)NCc3ccco3)CC2)c2ccccc2O1 (stereo unspecified)
i | -0.2 | O=C(O)CCC(=O)N1CCN(c2nc3ccccc3s2)CC1
i | -1.6 | COc1ccc(CNC(=O)CSc2nnnn2Cc2ccccc2)cc1
i | -0.1 | COc1ccc(OC)c(Nc2nc(-c3cccs3)cs2)c1
i | -0.03 | CCOC(=O)c1c(-c2ccccc2)csc1NC(=O)CCN1C(=O)c2ccccc2C1=O
i | 1.4 | Cc1cc2oc3ccc(NCCCn4ccnc4)cc3c(=O)c2cc1C
i | -0.68 | CC(OC(=O)c1ccc(S(=O)(=O)N2CCOCC2)cc1)c1ccccc1 (stereo unspecified)
i | 0.01 | O=C(Nc1ccccc1)c1ccco1
i | 0.35 | O=C(CCCN1C(=O)/C(=C/c2ccco2)SC1=S)Nc1ccccc1
i | 0.56 | CN(CC(=O)Nc1cccc(F)c1)C(=O)CN1C(=O)NC2(CCCCC2)C1=O
i | 0.01 | N#Cc1c(NC(=O)CCC(=O)O)sc2c1CCCC2
i | 0.84 | CCCC(=O)NC(Nc1cc(C(F)(F)F)ccc1Cl)C(Cl)(Cl)Cl (stereo unspecified)
i | -0.34 | O=C(Nc1ccsc1C(=O)O)c1ccc(Cl)cc1
i | -0.23 | c1ccc(CNc2nc(-c3cccs3)nc3ccccc23)cc1
i | -1.9 | COc1ccc(Nc2nc(-c3sc(NC(C)=O)nc3C)cs2)cc1
i | 0.3 | CCCN(CCC)CCNC(=O)c1cc2c(=O)n(C)c3ccccc3c2n1C
i | -0.07 | CC(=O)OC(C(=O)NCc1ccc2c(c1)OCO2)c1ccccc1Cl (stereo unspecified)
i | 1 | Fc1cccc(Cl)c1Cn1nnc(-c2ccc(N3CCOCC3)cc2)n1

Continued.
KCNQ2 inh | KCNQ2 inh baseline | Structure
i | 0.16 | CCOc1ccc2[nH]c(=O)c(CN(Cc3nnnn3CCc3ccccc3)CC3CCCO3)cc2c1 (stereo unspecified)
i | 0.02 | CC1CCN(S(=O)(=O)c2ccc(Br)s2)CC1
i | 15 | Cc1ccccc1N1C(=O)c2cccc3c(N(C)CCO)ccc(c23)C1=O
i | 0.7 | CSc1nsc(SCC(=O)Nc2nncs2)n1
i | 1.9 | Cc1ccc(S(=O)(=O)Nc2ccccc2C(=O)N2CCOCC2)cc1
i | -0.14 | O=C(/C=C/c1cccc([N+](=O)[O-])c1)c1cccs1
i | -0.74 | COc1ccccc1N1CCN(C(=O)c2cccc(Oc3ccccc3)c2)CC1
i | 3.9 | Cc1[nH]c2ccc(-c3nnc(SCC(=O)N4CCCc5ccccc54)o3)cc2c1C
i | -0.51 | COc1ccc(C(=O)/C(=C\c2sccc2C)c2nc3ccccc3o2)cc1
i | 0.24 | Fc1ccccc1CSc1nc2ncc(Br)cc2[nH]1
i | -0.12 | N#Cc1ccc(-c2ccc(F)cc2)nc1Oc1ccc(F)cc1
i | 0.52 | C=CCNc1nc2ccccc2c(=O)[nH]1
i | -0.97 | COc1cc(NC(=O)c2sc3ncn(CC(=O)N4CCCCC4)c(=O)c3c2C)cc(OC)c1OC
i | 1.4 | Oc1ccccc1Nc1nc(NCc2ccco2)c2ccccc2n1
i | 1.9 | Cc1nnc(SCC(=O)Nc2cccc(S(=O)(=O)N(C)c3ccccc3)c2)s1
i | -0.06 | Cc1c(C(=O)NCc2cccnc2)sc2nc(-c3ccccc3)cn12
i | 0.26 | Cc1sc2nc(SCC(=O)c3cc(C)n(CC4CCCO4)c3C)n(C(C)C)c(=O)c2c1C (stereo unspecified)
